High-throughput results from PubChem BioAssay.
GIRK2 activ – GIRK2 channel activation. HEK293-GIRK2 thallium flux, Thallos fluorescence. P48051. calls only for hits at 25 µM. hit rate 0.05% among 63,000;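 active = among the strongest 0.2% of first-round signals and kept after retests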;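 also: first round at about 10 µM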
Target sequence (P48051 whole entry, looked up): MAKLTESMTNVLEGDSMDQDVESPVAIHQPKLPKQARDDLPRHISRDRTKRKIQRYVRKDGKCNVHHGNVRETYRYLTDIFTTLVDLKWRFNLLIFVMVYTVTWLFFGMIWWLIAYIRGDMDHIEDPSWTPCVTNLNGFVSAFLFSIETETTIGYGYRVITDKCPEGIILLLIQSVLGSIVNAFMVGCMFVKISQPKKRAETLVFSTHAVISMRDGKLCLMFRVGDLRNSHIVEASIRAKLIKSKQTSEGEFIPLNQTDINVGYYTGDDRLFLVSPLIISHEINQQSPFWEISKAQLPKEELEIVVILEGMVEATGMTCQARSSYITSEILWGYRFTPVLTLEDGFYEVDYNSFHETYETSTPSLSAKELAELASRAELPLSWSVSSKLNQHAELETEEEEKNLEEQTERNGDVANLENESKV
Calls only; i = inactive.

GIRK2 activ,Compound
i,CN/C(=C\[N+](=O)[O-])NCCSCc1csc(CN(C)C)n1
i,CCN(C(=O)Cn1nc2nc(Nc3ccc(F)cc3)ccn2c1=O)c1ccccc1
i,CCCNC(=O)CN1CCN(CC(O)C2CC2)CC1 (centres undefined)
i,N#Cc1nc(-c2ccc(S(=O)(=O)N3CCOCC3)cc2)oc1N1CCN(Cc2ccccc2)CC1
i,COc1ccc(-c2csc(Cc3nc(-c4ccc(C(F)(F)F)cc4)no3)n2)cc1OC
i,O=C(NC1CCN(C(=O)c2cn(-c3ccccc3)nn2)CC1)C1CCCCC1
i,Cc1cc(C)c(S(=O)(=O)NC(C)(C)C)cc1N(C)S(=O)(=O)c1ccc(Cl)cc1
i,O=C(CSc1ccc(F)cc1)N1CCN(C(=O)C2CC2c2ccccc2)CC1 (centres undefined)
i,Cc1ccc(C(O)CNC(=O)Cc2ccc(Cl)cc2)o1 (centres undefined)
i,Cc1ccccc1C(=O)NC1CCN(C(=O)c2cc(-c3cccc(Cl)c3)n[nH]2)CC1
i,CSc1ccc(NC(=O)CCCc2ccccc2)nn1
i,Cc1ccc2[nH]c3c(=O)n(CC(=O)N4CCN(C(=O)c5ccco5)CC4)cnc3c2c1
i,COc1ccccc1Oc1coc2c3c(ccc2c1=O)OCN(C1CCS(=O)(=O)C1)C3 (centres undefined)
i,Cc1ccc(C(=O)N2CCN(Cc3nc(C4CC4)cs3)CC2)cc1
i,Cc1noc(C2CN(Cc3ccc4c(c3)CCO4)C2)n1
i,COC(=O)c1cc(Cl)ccc1Nc1nc2ccccc2nc1NS(C)(=O)=O
i,COc1ccc(F)cc1S(=O)(=O)Nc1cc2c3c(c1)CCC(=O)N3CCC2
i,O=C(/C=C/c1ccccc1Cl)Nc1ccc2c(c1)N(C(=O)c1ccco1)CC2
i,O=C(NNC(=O)c1cc2cc(Cl)cc(Cl)c2oc1=O)c1ccncc1
i,CCn1c(=O)c2c(nc3n(-c4ccc(OC)cc4)c(C)cn23)n(C)c1=O
i,Cc1cc(NC(=O)C(=O)NCCCN2CCN(c3ccccc3)CC2)no1
i,O=C(NCc1ccc(F)cc1)c1ccc2c(=O)n(-c3ccc(F)cc3)c(N3CCCC3)nc2c1
i,CN(C)CC1CSCCCN1C(=O)NCc1ccc(F)cc1 (centres undefined)
i,Cc1cc(=O)n2c(-c3cccc(NC(=O)c4ccc5ccccc5n4)c3)csc2n1
i,COc1ccc(OC)c(S(=O)(=O)N2CCC(Oc3nc4c(C)cccc4s3)CC2)c1
i,Nc1ccn([C@@H]2O[C@H](CO)[C@@H](O)C2O)c(=O)n1 (some centres undefined)
i,Cc1ccc(-c2csc3c(=O)n(CC(=O)N4CCOc5ccc(C)cc54)cnc23)cc1
i,C#CCn1c(C2CC(=O)N(c3ccc(C)c(Cl)c3)C2)nc2ccccc21 (centres undefined)
i,COc1ccc(N2CCN(c3nc4c(c(=O)[nH]c(=O)n4C)n3Cc3cccc(C)c3)CC2)cc1
i,COc1ccc(OC)c(S(=O)(=O)NCCCn2nc(-c3ccncc3)ccc2=O)c1
i,O=C(COc1cccc(C(F)(F)F)c1)N1CCN(c2cc(-c3ccccc3)ncn2)CC1
i,CC(C)S(=O)(=O)c1ccc(CC(=O)Nc2ccc(-n3nnn(C)c3=O)cc2)cc1
i,O=C(NCCOc1ccccc1)NCC1CCN(C(=O)/C=C/c2ccco2)CC1
i,COc1ccc(C(=O)Nc2ccc(S(C)(=O)=O)cc2)cc1
i,O=C(Nc1nc(-c2cc3ccccc3o2)cs1)c1ccc([N+](=O)[O-])o1
i,Cc1ccc(NCCNC(=O)Nc2ccccc2)nn1
i,Cc1ccccc1-n1c(=S)sc2c(=O)[nH]c(SCC(=O)NCc3ccco3)nc21
i,CCOc1ccc(-c2noc(CS(=O)(=O)c3ccc(OC)c(Cl)c3)n2)cc1
i,COc1ccc(OC)c(COCC(O)CN2CCN(Cc3ccc4c(c3)OCO4)CC2)c1 (centres undefined)
i,CC1Cc2ccccc2N1C(=O)c1ccc(=O)n(C(C)C)n1 (centres undefined)
i,O=C1/C(=C/c2ccccc2Br)Oc2cc(OC(=O)C3CC3)ccc21
i,O=c1[nH]c2nc(N3CCc4ccccc4C3)ncc2c(=O)n1Cc1ccccc1F
i,COc1ccc(N2CCCn3c2nc2c3c(=O)n(CCCc3ccccc3)c(=O)n2C)c(OC)c1
i,O=c1ccn(-c2ccccc2)nc1-c1nc(-c2ccccc2OCc2ccccc2)no1
i,CCc1cc(=O)n(CCNC(=O)c2ccc(S(N)(=O)=O)cc2)cn1
i,COc1ccc(N2CCN(Cc3nc4c(c(=O)n(C)c(=O)n4C)n3CC(=O)C(C)(C)C)CC2)cc1
i,COc1ccc(CNC(=O)Nc2cccc(-c3nc4ccccc4s3)c2)cc1OC
i,COc1cccc(-c2noc(Cn3c(=O)n(-c4ccccc4F)c(=O)c4sccc43)n2)c1
i,O=C(Cc1cc(=O)[nH]c(SCc2ccc(F)cc2)n1)Nc1ccc2c(c1)OCCO2
i,Cn1cc(-c2cccs2)nc1CCNS(=O)(=O)c1ccc(Cl)s1

More structures:
GIRK2 activ,Compound
i,O=C(NCCc1ccc(Cl)cc1)C1CCN(c2ncnc3c2oc2ccccc23)CC1
i,Cn1c(=O)c2c(nc3n2CC(c2ccc(F)cc2)=NN3CCN2CCOCC2)n(C)c1=O
i,Cn1c(CN2CCN(CC(=O)NC(C)(C)C)CC2)nc2ccccc21
i,Cn1c(CN2CCN(CC(=O)c3ccccc3)CC2)nc2ccccc21
i,COc1ccc(S(=O)(=O)NCCCN(C)C)cc1N(C)S(=O)(=O)c1ccccc1
i,O=C(NCC(O)c1ccoc1)Nc1ccc2c(c1)OCO2 (centres undefined)
i,COc1cc(NS(=O)(=O)c2ccc(F)cc2)ccc1N1CCCCC1=O
i,Cc1nn(C)c(C)c1S(=O)(=O)NCC1CCN(c2ncccn2)CC1
i,N#Cc1ccc(COCC2CCN(C(=O)NCc3ccc(F)cc3)CC2)cc1
i,N#C/C(=C\C1=C(Cl)c2ccccc2CC1)c1nc2ccccc2[nH]1
i,CCOC(=O)C1CCN(C(=O)c2cc3cccc(OCC)c3oc2=O)CC1
i,CC(=O)N1C(=O)C(=C2C=C(C)OC(C)=C2)c2ccccc21
i,COc1ccc(SCC2CCN(C(=O)Nc3ccccc3OC)CC2)cc1
i,COc1ccc(-c2nc(C#N)c(N3CCN(C(=O)c4ccccc4)CC3)o2)cc1OC
i,O=C(Cn1c(=O)oc2ccccc21)N1CCC(Cn2cnc3ccccc32)CC1
i,Cc1ccc(S(=O)(=O)NC2CC(=O)N(C3CC3)C2)s1 (centres undefined)
i,COc1ccc(CNC(=O)c2nnn(Cc3nc(-c4ccc(OC)cc4OC)oc3C)c2N)cc1
i,O=C(Cn1ncn2nc(-c3ccccc3)cc2c1=O)NCc1ccco1
i,O=C(NCCn1nc(-c2cccs2)ccc1=O)c1ccc(-n2ccnc2)nn1
i,CC(=O)Nc1cccc(Nc2c(C(=O)N3CCOCC3)cnc3nc(C)ccc23)c1

Arranged by length of the SMILES (highest first): some entries from above.
GIRK2 activ,Compound
i,COc1ccc(-c2nc(C#N)c(N3CCN(C(=O)c4ccccc4)CC3)o2)cc1OC
i,O=C(Cn1c(=O)oc2ccccc21)N1CCC(Cn2cnc3ccccc32)CC1
i,O=C(Cn1ncn2nc(-c3ccccc3)cc2c1=O)NCc1ccco1

Next entries follow.
GIRK2 activ,Compound
i,Cc1nc(Nc2ccc(NC(=O)c3c(-c4ccccc4Cl)noc3C)cc2)cc(-n2ccnc2)n1
i,CCOC(=O)c1c(NCc2ccc(OC)cc2)c2cccc(Cl)c2[nH]c1=O
i,CCCCCCCCCCCCCCCCOC[C@H](COP(=O)([O-])OCC[N+](C)(C)C)SC(C)=O
i,COc1ccc(-c2csc(Nc3ccc(Br)cn3)n2)cc1
i,COc1ccc(S(=O)(=O)NCCC(O)C2CC2)c(C)c1 (centres undefined)
i,CC(C)(Oc1ccc(Cl)cc1)C(=O)NCCN1CCN(S(C)(=O)=O)CC1
i,O=C(CSc1cnn(CC(=O)N2CCc3ccccc32)c(=O)c1Cl)NC1CC1
i,COc1ccccc1C(=O)Nc1cnc(N2CCN(c3ccccn3)CC2)nc1
i,O=C(Nc1nnc(-c2ccc3c(c2)OCCO3)o1)c1ccc2nsnc2c1
i,CCCOc1ccccc1C1NC(=O)NC(C)=C1C(=O)OCc1ccccc1 (centres undefined)
i,COc1cccc(Cn2nnc3c(=O)n(Cc4nc(-c5ccc(Br)cc5)no4)cnc32)c1
i,COc1cc(OC)c(NC(=O)CSc2nccnc2N2CCSCC2)cc1Cl
i,COCCCNc1oc(-c2ccc(S(=O)(=O)N3CCCCC3)cc2)nc1C#N
i,O=C(NCC1CCN(C(=O)c2ccoc2)CC1)c1ccc2nsnc2c1
i,C/C=C/Cn1c(=O)c2c(nc3n2CCCN3c2cc(OC)ccc2OC)n(C)c1=O
i,COCCCn1c(=O)c2ccccc2n(Cc2nc(-c3ccc(C)c(C)c3)no2)c1=O
i,COc1ccc(C(=O)/C=C/c2ccc(Cl)cc2)c(O)c1
i,Cc1ccc(-c2noc(C3CCN(CC(=O)Nc4cc(F)ccc4C)CC3)n2)cc1
i,COc1ccc(CC(=O)Nc2ccc3nc(C)n(-c4ccc(F)cc4)c(=O)c3c2)cc1OC
i,COc1cc(/C=C/C(=O)NCCCOc2cccc3cccnc23)cc(OC)c1OC
i,O=C(Nc1cccc(C(F)(F)F)c1)N1CCN(c2ccc(-n3cccc3)nn2)CC1
i,CCN(CC)S(=O)(=O)c1ccc(C)c(N(C)S(=O)(=O)c2ccc(C)cc2)c1C
i,O=C(NCC1(CO)CC1)C1CC=CCC1 (centres undefined)
i,CCc1nnc(C2CCN(C(=O)c3ccc(F)cc3Cl)CC2)s1
i,Cc1ccc(-n2ccnc(SCC(=O)Nc3ccccc3C(F)(F)F)c2=O)cc1
i,O=C(NCc1cnn2ccccc12)C12CC3CC(CC(C3)C1)C2
i,Cc1ccccc1C(=O)N/N=C(/N)c1cc2ccccc2oc1=N
i,CC(=O)Nc1ccc(OC(C)=O)cc1
i,CC(C)c1nnc(C2CCN(C(=O)Cc3ccc(Cl)cc3)CC2)o1
i,Cc1nc(OCC(=O)Nc2cccc(Cl)c2)c2ccccc2n1
i,Cc1noc(C)c1CC(=O)N1CC(c2nc(-c3cccs3)no2)C1
i,COc1ccc(N2C=C(C#N)S(=O)(=O)c3ccc(C)cc32)cc1OC
i,COc1ccc(-c2noc(Cn3c(=O)n(Cc4ccc(C)cc4)c(=O)c4ccccc43)n2)cc1OC
i,CCCCCNC(=O)C1CCC(Cn2c(=O)c3sccc3n(Cc3ccc(C#N)cc3)c2=O)CC1 (centres undefined)
i,COCCN(Cc1ccoc1)C(=O)C1(c2ccc(Cl)cc2)CCCC1
i,O=C(c1cccs1)c1ccc(CNC(=O)C2(c3cccs3)CCCC2)s1
i,COc1ccccc1-c1noc(-c2nnn(-c3cccc(SC)c3)c2C)n1
i,Cc1cc(OCC(=O)N2CCN(c3ccc4nnc(C5CC5)n4n3)CC2)cc(C)c1Cl
i,Cc1cc(NC(=O)C(=O)NCCc2ccc(Cl)cc2)c2ccccc2n1
i,Cc1cn2c3c(=O)n(CC(N)=O)c(=O)n(C)c3nc2n1-c1ccc(C(F)(F)F)cc1
i,O=C(CN1C(=O)CCC1=O)NCC1CCS(=O)(=O)C1 (centres undefined)
i,COCCc1nnc(NC(=O)c2snnc2C)o1
i,O=C(NCCOc1cc(N2CCCC2)ncn1)c1ccccc1Cl
i,COCCNC(=O)c1cc2c(=O)n3ccccc3nc2n(C)c1=N
i,COc1ccc(C(=O)Nc2nnc(-c3ccccc3OC)o2)cc1
i,COc1ccc(NC(=O)Cn2ncn3nc(-c4ccc(Cl)cc4)cc3c2=O)c(OC)c1
i,O=C(NCc1cccs1)C(=O)NCC(O)(c1ccccc1)C1CC1 (centres undefined)
i,O=C(Cn1cccc(-c2nc(-c3ccc(F)cc3)no2)c1=O)N1CCN(c2ccccc2)CC1
i,O=C(CN1CC(c2nc(-c3ccco3)no2)C1)Nc1ccc(Cl)c(Cl)c1
i,COc1ccc(OC)c(CNC(=O)c2[nH]c3ccc(C)cc3c2NC(=O)c2ccc(F)cc2)c1

Gathered by group, those above containing bromine
GIRK2 activ,Compound
i,O=C1/C(=C/c2ccccc2Br)Oc2cc(OC(=O)C3CC3)ccc21
i,COc1ccc(-c2csc(Nc3ccc(Br)cn3)n2)cc1
i,COc1cccc(Cn2nnc3c(=O)n(Cc4nc(-c5ccc(Br)cc5)no4)cnc32)c1

4 entries from above, with each value named.
canonical_smiles: O=C1/C(=C/c2ccccc2Br)Oc2cc(OC(=O)C3CC3)ccc21
  GIRK2 activ = i
canonical_smiles: O=c1[nH]c2nc(N3CCc4ccccc4C3)ncc2c(=O)n1Cc1ccccc1F
  GIRK2 activ = i
canonical_smiles: COc1ccc(N2CCCn3c2nc2c3c(=O)n(CCCc3ccccc3)c(=O)n2C)c(OC)c1
  GIRK2 activ = i
canonical_smiles: O=c1ccn(-c2ccccc2)nc1-c1nc(-c2ccccc2OCc2ccccc2)no1
  GIRK2 activ = i

The list goes on:
GIRK2 activ,Compound
i,CCOC(=O)CCC(=O)Nc1cccc2ccc(-n3ccnc3)nc12
i,CCOC(=O)C1CCCN(C(=O)CCC2NC(=O)c3ccccc3NC2=O)C1 (centres undefined)
i,O=C(CCCc1ccccc1)N(CCc1cccs1)C1CC1
i,C#Cc1ccc(/C=C2\C=C(CC(=O)O)c3cc(F)ccc32)cc1
i,O=C(/C=C/c1cccs1)N1CCN(c2ccc(-c3noc(C(F)(F)F)n3)cn2)CC1
i,COc1cc(C)ccc1OC(C)C(=O)Nc1cc(N2CCN(C)CC2)ncn1 (centres undefined)
i,COc1ccc(CC(=O)NCC#CCOc2ccccc2OC)cc1
i,c1cc2c(cc1Nc1nc(N3CCCC3)nc(N3CCCC3)n1)OCO2
i,COc1ccc(C2CC3C4NN=C(SCC(=O)Nc5ccc(F)cc5Cl)N4C=CN3N2)cc1 (centres undefined)

An excerpt; count on the stated rates, not on these rows.
